# Rango dissoc inh: prevents RanGTP from dissociating the Rango-importin beta complex. AID 540253. O95149+P62826. Potency, µM (series often up to 46.1 µM), for inactives: at the top dose activity change, negative = inhibition. Biochemical FRET Rango-importin beta, RanGTP-induced dissociation. 340,000 tested, 0.071% active; active means falling FRET ratio curve, often poorly fitted, with flat reads before Ran was added; inconclusive means other falling curves, or compound fluorescence or quenching; inactive means flat or rising ratio curve;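 further: potency means the concentration at half of the fitted maximal effect; % of control where 0% means no effect; nearly all actives have a fitted effect of over 45% in size; -100% = wells without RanGTP and RCC1; the record marks most hits as doubtful in a second field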
#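 Rango FRET biosensor (snurportin-1 IBB flanked by N-terminal EYFP and C-terminal CFP10) at 0.1 uM, with 0.25 uM importin beta in PBS, 1mM DTT, 0.02% Tween-20, 0.1% BSA. 0.6 uM Ran, 2mM GTP and 0.2 uM RCC1 were then added for 45 min at room temperature. Inhibition read as loss of FRET rise.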
# miR-21 reporter: raises the signal of a miR-21 reporter; Potency, µM (doses to about 38.3 µM), without a hit: at the highest dose reporter change, positive = more light; 340,000 tested, under 10 active; HeLa miR-21 FLuc reporter, luciferase, 48 h; active = well fitted rising curve with a large enough effect; inconclusive = small, poorly fitted or top-dose-only effect; inactive = no such curve, though single readings can be large or run the other way;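 further: % of control where 0% means no effect; miR-21 action dims this reporter so a rising signal means less miR-21 action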
#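 HeLa cells stably expressing CMV-driven firefly luciferase with a downstream miR-21 binding sequence, endogenously expressing miR-21, were treated with titrations (up to about 40uM final) for 48 hours at 37 degree Celsius. Luciferase luminescence was read after lysis.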
# Rango-impB inh: inhibitors of Rango-importin beta complex formation. Potency, µM (series often up to 92.2 µM), for the others: top-dose inhibition of complex formation. Rango CFP/YFP FRET sensor + importin beta, 45 min. 340,000 tested, 0.031% active. Q14974; active = rising FRET ratio curve, often small or poorly fitted; inconclusive = mostly compound fluorescence or quenching in the first reads; inactive = flat curves in all reads;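 further: potency means the concentration at half of the fitted maximal effect; 0% = DMSO wells and 100% = buffer wells lacking importin beta; nearly all actives have a fitted effect of over 15% in size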
# Target sequence (Q14974 whole entry, looked up): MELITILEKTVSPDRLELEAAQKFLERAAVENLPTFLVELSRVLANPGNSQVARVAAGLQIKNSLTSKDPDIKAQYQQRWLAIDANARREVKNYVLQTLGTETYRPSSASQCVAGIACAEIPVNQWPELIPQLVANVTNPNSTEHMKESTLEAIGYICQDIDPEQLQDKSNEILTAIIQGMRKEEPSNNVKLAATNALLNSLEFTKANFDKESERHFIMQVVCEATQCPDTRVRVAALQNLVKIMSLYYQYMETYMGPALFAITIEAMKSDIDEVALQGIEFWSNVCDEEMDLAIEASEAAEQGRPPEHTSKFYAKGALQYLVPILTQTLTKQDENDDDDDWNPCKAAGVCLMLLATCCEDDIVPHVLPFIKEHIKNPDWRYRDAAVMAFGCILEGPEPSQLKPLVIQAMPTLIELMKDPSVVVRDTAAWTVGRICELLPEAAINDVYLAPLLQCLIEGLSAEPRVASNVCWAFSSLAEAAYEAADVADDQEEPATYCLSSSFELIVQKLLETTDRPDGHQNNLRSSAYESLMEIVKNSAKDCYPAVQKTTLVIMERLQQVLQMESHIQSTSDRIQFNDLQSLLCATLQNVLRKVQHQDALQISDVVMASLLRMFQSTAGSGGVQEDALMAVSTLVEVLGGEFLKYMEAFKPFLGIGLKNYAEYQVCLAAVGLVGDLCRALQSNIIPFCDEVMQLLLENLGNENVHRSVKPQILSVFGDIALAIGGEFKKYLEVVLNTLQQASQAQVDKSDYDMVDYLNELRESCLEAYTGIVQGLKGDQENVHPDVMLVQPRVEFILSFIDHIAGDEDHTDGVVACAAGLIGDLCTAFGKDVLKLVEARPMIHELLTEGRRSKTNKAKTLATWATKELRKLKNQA
#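 FRET biosensor Rango (snurportin 1 IBB between N-terminal EYFP and C-terminal Cerulean), 50 nM in PBS/1 mM DTT/0.02% Tween-20/0.1% BSA, preincubated 5 min RT with compound; 0.125 microM importin beta added, 45 min RT, CFP/YFP FRET ratio read.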
# GLA inh pH 4.5: blocks human alpha-galactosidase A at pH 4.5. 230,000 tested, under 10 active. purified enzyme, 4-MU-alpha-Gal fluorescence, pH 4.5. P06280. activity change, negative = inhibition, % at 105 µM. AID 1467; inconclusive = small, poorly fitted or top-dose-only inhibition, or a rising curve; inactive = flat fitted curve, though single readings scatter; no compound was filed as active;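 further: 0% = full activity with enzyme and -100% = basal without enzyme; dose as in the result columns while the protocol names 77 µM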
# * = called active by the depositor; ? = inconclusive; . = not tested or not shown; & = joins results of further samples.
SMILES,Rango dissoc inh,miR-21 reporter,Rango-impB inh,GLA inh pH 4.5
CCO[C@H]1OC(C(=O)NCc2ccccc2)=C[C@@H](C2CC2)[C@@H]1CCCO,-11%,-1%,-0.6%,-3
CC(C)c1ccc(C2c3[nH]c4ccccc4c3C[C@H]3C(=O)N(c4ccccc4C(=O)N4CCC[C@H]4C(=O)O)C(=O)N23)cc1 (some centres undefined),-17%,3%,?,.
O=c1c2c3nc4ccccc4nc3n(-c3ccc4c(c3)OCCO4)c2ncn1CC1CCCO1 (centres undefined),.,-18%,.,7
CCC(=O)N1CCN(c2ccc(Cl)cc2NC(=O)c2ccc([N+](=O)[O-])o2)CC1,-10%,12%,-0.5%,.
O=C(O)c1ccc(-n2ncc3c2/C(=C\c2cccc([N+](=O)[O-])c2)CC3)cc1,33%,.,-1.8%,.
COc1ccc(-c2cc(CC3(C(=O)O)CCN(C(=O)OC(C)(C)C)CC3)on2)c(OC)c1,7%,-4%,4.4%,.
Cn1cc(/C=N/Nc2ccccc2)c2ccccc21,23%,-16%,-1.1%,5
CCN1CCN(CCNC(=O)Cn2c(=O)c3cccn3c3ccc(F)cc32)CC1,1%,-3%,-1.2%,.
Cc1ccc(CNC(=O)CN(c2ccc(C)cc2)S(=O)(=O)c2c(C)n[nH]c2C)cc1,-2%,1%,0.3%,.
CCOC(=O)c1cnc(SCC(=O)Nc2nc(C)c(C)s2)nc1N,-3%,-11%,0.8%,-6
CCN=C1S/C(=C/c2ccc(-c3ccc(F)cc3)o2)C(=O)N1CC,?,-9%,?,.
COc1ccc(-c2n[nH]c(=S)n2Cc2ccccc2)cc1,-12%,2%,6.7%,.

# The final six compounds of the part before are carried over, then new ones follow:
SMILES,Rango dissoc inh,miR-21 reporter,Rango-impB inh,GLA inh pH 4.5
Cn1cc(/C=N/Nc2ccccc2)c2ccccc21,23%,-16%,-1.1%,5
CCN1CCN(CCNC(=O)Cn2c(=O)c3cccn3c3ccc(F)cc32)CC1,1%,-3%,-1.2%,.
Cc1ccc(CNC(=O)CN(c2ccc(C)cc2)S(=O)(=O)c2c(C)n[nH]c2C)cc1,-2%,1%,0.3%,.
CCOC(=O)c1cnc(SCC(=O)Nc2nc(C)c(C)s2)nc1N,-3%,-11%,0.8%,-6
CCN=C1S/C(=C/c2ccc(-c3ccc(F)cc3)o2)C(=O)N1CC,?,-9%,?,.
COc1ccc(-c2n[nH]c(=S)n2Cc2ccccc2)cc1,-12%,2%,6.7%,.
Cc1ccccc1C(=O)Nc1ccnn1C1CCN(Cc2ccc(CO)o2)CC1,4%,-7%,-1.4%,.
O=C(COC(=O)c1ccccc1NCCO)Nc1cc(C(F)(F)F)ccc1N1CCOCC1,-10%,1%,-1.1%,.
COc1ccc(-c2csc(NC(=O)C3COc4ccccc4O3)n2)cc1OC (centres undefined),-23%,-5%,-1.2%,-8
O=C(NC(=S)N1CCCCCC1)c1ccccc1Cl,-12%,-3%,3.1%,6
O=C(NC1CCCC1)C(c1ccccn1)N(C(=O)c1csnn1)c1ccc(F)cc1 (centres undefined),2%,-3%,0.3%,.
Cc1c(-c2c(C#N)c(N)nc3c2CCCCCC3)cnn1C,29%,-10%,-0.3%,5
O=C(CCc1ccccc1)OCCOC(=O)CCc1ccccc1,-15%,0%,1.7%,.
CCn1cc(C2C(C(=O)Nc3cc(C)ccn3)=C(C)NC3=C2C(=O)CC(C)(C)C3)c(C)n1 (centres undefined),?,-14%,?,14
O=[N+]([O-])c1c(Nc2ccc(O)cc2)cc(Cl)c2nonc12,8%,?,6.4%,.
Cc1ccc(NC(=O)Cc2nnc(SCC(=O)NC3CCCC3)n2C)cc1,18%,-2%,5.1%,.
COc1ccc(S(=O)(=O)Oc2c(OC)cc(C(=S)N3CCOCC3)cc2OC)cc1,-3%,-4%,-1.8%,.
COc1ccc(C(=O)OCC(=O)c2ccc3c(c2)NC(=O)CO3)cc1[N+](=O)[O-],-11%,.,0.2%,.
COc1cc([C@@H]2CC=C(C(=O)O)CN2S(=O)(=O)c2ccc(C)cc2)cc(OC)c1OC,-4%,.,-1.7%,.
N#CC1(C#N)[C@@H](C(=O)C23CC4CC(CC(C4)C2)C3)C12CCOCC2,-9%,-6%,0.9%,-1
CC/C(Cc1ccccc1)=N\NC(=O)c1cc(C)oc1C,-13%,-18%,4.7%,6
COc1ccc(NC(=O)NC(C)C2CC3CCC2C3)cc1 (centres undefined),0%,-10%,1.8%,-4
CN(C)CCN1C(=O)C(=O)/C(=C(/O)c2ccc(F)cc2)C1c1ccccc1 (centres undefined),19%,1%,1.9%,3
Cc1ccc(/C=N/NC(=O)Cn2nccc2C)o1,6%,-1%,1.7%,-18
CCCOc1ccc(/C=C/C(=O)NCc2ccccc2)cc1,-7%,-13%,1.2%,7
CC(C)COP(=O)(c1ccc(N(C)C)cc1)C(O)c1ccccn1 (centres undefined),9%,-3%,3.7%,-3
O=C(COC(=O)c1cc(-c2cccs2)nn1-c1ccccc1)Nc1ccc(Cl)c([N+](=O)[O-])c1,6%,0%,5.4%,2
Cc1ccc(OC(C)C(=O)Nc2ccc(C)c(S(=O)(=O)Nc3ccc(C)cc3C)c2)cc1 (centres undefined),-2%,12%,-2.7%,-18
N/C(=N\OC(=O)CCCCCN1C(=O)c2ccccc2C1=O)c1ccccn1,0%,4%,-2.9%,8
O=S(=O)(/C(=C/c1ccc(C(F)(F)F)cc1)c1nc2ccccc2[nH]1)c1ccccc1,1%,?,0.1%,0
Cn1c(COc2ccc([N+](=O)[O-])cc2)nnc1SCC(=O)NCC1CCCO1 (centres undefined),1%,0%,5.3%,.
O=C(O)CC/C(=N/Nc1ncc(C(F)(F)F)cc1Cl)C(=O)O,1%,0%,-1.2%,5
CN1c2ccccc2Sc2cc(N)ccc21,-8%,-12%,-0.3%,.
O=C(O)c1cc([N+](=O)[O-])ccc1NCCCc1ccccc1,1%,.,-2.6%,-3&-24&-13
O=C(Nc1cccc(F)c1)N1CCC(c2ccccc2)CC1,-12%,-35%,0.7%,.
Cc1ccc(C)c2nc(SCC(=O)Nc3ccc4c(c3)OCO4)c(C#N)cc12,12%,-2%,1.3%,-1
COc1cccc(CNC(=O)CCC(=O)N2Cc3cccc(OC)c3Oc3ncccc32)c1OC,19%,-4%&-2%,-0.1%,.
COCCCN=Cc1c(C)[nH]n(-c2ccc(Br)cc2Br)c1=O,-8%,-2%,3.5%,8
c1csc(CNc2ncnc3sccc23)c1,-10%,.,-4.1%,.
Clc1cccc(Cl)c1C1=NOC(c2nnc(-c3ccccc3)o2)C1 (centres undefined),6%,-70%,0.1%,0
Cc1ccc(NC(=O)CN(C)S(=O)(=O)c2cccc3cccnc23)cc1F,21%,0%&-2%,6.1%,.
C=CCN(CC=C)Cc1c(O)ccc2c1oc(=O)c1ccccc12,-26%,.,?,.
O=C(O)c1cc(N=Nc2c(O)ccc3ccccc23)cc(C(=O)O)c1,11%,4%,4.0%,-1
Cc1cccc(NS(=O)(=O)c2ccc(C)c(C(=O)OCC(=O)Nc3cc(C)on3)c2)c1,1%,15%,-1.4%,4
Nc1nc2n(n1)C(c1ccccc1)CC(c1ccc(F)cc1)N2 (centres undefined),1%,-7%,5.3%,-4
CC(Oc1cc2oc(=O)c3c(c2cc1Cl)CCCC3)C(=O)NCCN1CCOCC1 (centres undefined),0%,-6%,-0.2%,.
COc1ccc(-c2nnc(SCC(=O)Nc3cc(C)on3)n2N)cc1OC,17%,-6%,3.7%,5
COC(=O)COc1nc(C)c2c(c1C#N)CC(C)(C)OC2,7%,0%,5.5%,2
COc1ccc(C2=NN(C(=O)CSc3nccn3C)C(c3ccco3)C2)cc1 (centres undefined),-5%,.,-5.1%,.
COC1CCN(Cc2c(C(=O)N3C[C@@H](C)O[C@@H](C)C3)nc3ccc(Cl)cn23)CC1,-8%,0%,-1.1%,.
COc1ccc(C(=O)NC(C)c2cnn(-c3ccccn3)c2C)o1 (centres undefined),-8%,-4%,-0.1%,.
CCCCCSc1nc2c(c(=O)[nH]c(=O)n2C)n1CCc1ccccc1,-12%,5%,10%,-5
COc1ccc(S(=O)(=O)Oc2ccc3ccccc3c2)cc1,0%,-13%,-3.5%,-13
CCN(Cc1ccccc1)C(=O)c1ccc(N(C)S(=O)(=O)c2ccc(C)cc2)cc1,1%,.,-1.6%,.
COc1ccc(S(=O)(=O)N2CCN(Cc3cccc(F)c3)CC2)cc1,-5%,.,3.0%,.
CC(C)NC(=O)CCCn1cc([N+](=O)[O-])cn1,11%,-1%,3.2%,-4
Cc1occc1-c1nnc(SCC(=O)NC2(C#N)CCCC2)n1C,-3%,.,-2.4%,.
CN(CC(=O)Nc1ccccc1Br)C(=O)c1ccccc1Sc1ccccc1C#N,42%,.,3.1%,.
COc1ccc(NC(=O)CSc2nncs2)cc1S(N)(=O)=O,38%,1%,2.7%,2
O=C(NC(=S)Nc1cccc(O)c1)c1ccco1,-16%,-50%,0.3%,0
CC(=O)N1CCN(CC(=O)Nc2cccc(S(=O)(=O)N3CCCCC3)c2)CC1,-6%,.,-0.4%,.
COc1ccc(S(=O)(=O)NCCc2c[nH]c3ccc(Cl)cc23)cc1,1%,1%,-3.0%,.
CC(OC(=O)c1ccc(Cl)nc1)C(=O)N1CCc2ccccc21 (centres undefined),-15%,.,3.6%,.
C=COc1ccc(N2C(=O)c3ccccc3OC2C)cc1 (centres undefined),-13%,-4%,-4.2%,.
CCN(CC)C(=O)CSc1nc(OC)cc(=O)[nH]1,4%,-2%,1.5%,-3
Cc1cc(C(F)F)n2nc(C(=O)Nc3ccc(S(=O)(=O)NC45CC6CC(CC(C6)C4)C5)cc3)nc2n1,1%,-2%,-0.6%,-2

# Further structures follow.
SMILES,Rango dissoc inh,miR-21 reporter,Rango-impB inh,GLA inh pH 4.5
CCC(C)(C)n1nnnc1C(c1cc2cccc(C)c2[nH]c1=O)N1CCCC1 (centres undefined),-8%,-3%,2.3%,-6
CCn1c(SCC(=O)N=Nc2c(O)[nH]c3ccccc23)nnc1-c1ccc(C(C)(C)C)cc1,.,0%,.,-2
O=C(CCCOc1ccc(Cl)cc1Cl)NCc1ccccn1,-4%,-17%,-2.6%,2
CCOc1ccccc1NC(=O)C(c1ccccc1)N1CCN(CC(=O)N2CCCC2)CC1 (centres undefined),-16%,.,-2.4%,.
O=C(Cn1c(O)c(/C=C2\C=Nc3ccc(Br)cc32)sc1=O)N1CCCC1,-18%,-4%,1.2%,-7
COc1ccccc1CCNC(=O)C(=O)Nc1cc2c3c(c1)C(C)C(=O)N3CCC2 (centres undefined),10%,.,-3.3%,.
Nc1cc(C(=O)OCC(=O)N2CCCC2)ccc1Cl,9%,-46%,2.2%,-8
Nn1c(SCC(=O)Nc2nccs2)nnc1-c1cccnc1,-3%,.,-2.2%,.
O=c1cc(CSc2nc3ccccc3[nH]2)c2ccccc2[nH]1,21%,-52%,0.0%,-10
CCCCn1c(NC(=O)CC)c(C#N)c2nc3ccccc3nc21,?,-7%,?,9
CCCCC(=NCCc1c(C)[nH]c2ccccc12)C1=C(O)CC(c2ccccc2)CC1=O (centres undefined),?,25%,1.7%,-6

# In another format: entries from further up.
> CCOc1ccccc1NC(=O)C(c1ccccc1)N1CCN(CC(=O)N2CCCC2)CC1 (centres undefined)
  Rango dissoc inh: -16%
  miR-21 reporter: .
  Rango-impB inh: -2.4%
  GLA inh pH 4.5: .

> Nn1c(SCC(=O)Nc2nccs2)nnc1-c1cccnc1
  Rango dissoc inh: -3%
  miR-21 reporter: .
  Rango-impB inh: -2.2%
  GLA inh pH 4.5: .

> CCCCn1c(NC(=O)CC)c(C#N)c2nc3ccccc3nc21
  Rango dissoc inh: ?
  miR-21 reporter: -7%
  Rango-impB inh: ?
  GLA inh pH 4.5: 9

> O=c1cc(CSc2nc3ccccc3[nH]2)c2ccccc2[nH]1
  Rango dissoc inh: 21%
  miR-21 reporter: -52%
  Rango-impB inh: 0.0%
  GLA inh pH 4.5: -10

# High-throughput results: PubChem, National Center for Advancing Translational Sciences (NCATS)

# These rows are one share of the data. The share of hits here may be higher or lower than overall.
